# Mtb bLac sens = beta-lactam sensitization of Mtb H37Rv, H37Rv; inhibition, % at 25 µM; M. tuberculosis H37Rv growth with meropenem, percent inhibition; hits of this screen are not shown here; 330,000 tested, 0.27% active; AID 434955, 2010;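 active = about 74% or more and at least 40 points above the plate without the antibiotic, then above 30% in a dose series; inconclusive = first-round hits that could not be retested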;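 note: growth measured after seven days incubation then overnight dye step; 0% = bacteria only wells and 100% = bacteria with antibiotic; twin plates without the antibiotic show which effects depend on it; some results filed as inactive read as strong as hits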
# YopH PTP inh = YopH tyrosine phosphatase inhibitors, primary screen, biochemical, fluorescence Ex485/Em525; inhibition, %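 (about 10 µM by stock and volumes)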; YopH tyrosine phosphatase [Yersinia enterocolitica]; AID 898, 2007; 140,000 tested, 0.16% active;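 active = inhibition of 50% or more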;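 note: controls were vehicle for no effect and minimum signal wells for full effect; inactives centre near -20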
# RecA intein inh = Mtb RecA intein splicing inhibitors, primary screen, biochemical, fluorescence, HTS; Protein RecA (Mycobacterium tuberculosis (strain ATCC 25618 / H37Rv)), P9WHJ3; cell-free RecA intein splicing; inhibition, %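 (about 9 µM by stock and volumes)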; 290,000 tested, 0.75% active; AID 2221, 2009; in the data active = inhibition above about 30%; inconclusive = no clear call, values can overlap the other calls;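 note: 0% = vehicle wells and 100% = reference inhibitor control wells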
# Target sequence (P9WHJ3 whole entry, looked up): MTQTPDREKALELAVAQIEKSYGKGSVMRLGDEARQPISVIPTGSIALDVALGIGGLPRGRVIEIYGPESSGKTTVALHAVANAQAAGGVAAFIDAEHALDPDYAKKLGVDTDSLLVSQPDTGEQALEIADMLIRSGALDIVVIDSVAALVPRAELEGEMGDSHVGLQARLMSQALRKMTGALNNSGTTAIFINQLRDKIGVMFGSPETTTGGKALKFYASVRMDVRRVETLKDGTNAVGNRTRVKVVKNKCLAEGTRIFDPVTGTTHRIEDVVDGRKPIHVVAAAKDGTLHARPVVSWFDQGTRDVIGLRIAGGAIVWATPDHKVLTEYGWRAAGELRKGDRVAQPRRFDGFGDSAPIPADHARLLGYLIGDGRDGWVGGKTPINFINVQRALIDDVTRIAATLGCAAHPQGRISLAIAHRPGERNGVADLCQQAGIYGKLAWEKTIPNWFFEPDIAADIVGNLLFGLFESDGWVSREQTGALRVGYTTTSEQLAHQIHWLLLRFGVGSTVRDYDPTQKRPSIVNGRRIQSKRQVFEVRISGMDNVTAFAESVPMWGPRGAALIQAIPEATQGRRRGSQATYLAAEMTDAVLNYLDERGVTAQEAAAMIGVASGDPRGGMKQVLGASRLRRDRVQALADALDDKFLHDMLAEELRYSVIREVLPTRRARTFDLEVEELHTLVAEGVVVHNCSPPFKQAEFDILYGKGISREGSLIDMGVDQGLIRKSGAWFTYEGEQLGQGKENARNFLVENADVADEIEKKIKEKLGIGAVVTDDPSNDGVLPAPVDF
# Mtb growth = M. tuberculosis H37Rv growth inhibitors, H37Rv strain (AID 1626); M. tuberculosis H37Rv growth inhibition; higher % means a stronger effect; inhibition, % at 10 µM, or IC50 in µM where a hit was titrated; 220,000 tested, 0.95% active;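 active = confirmed in a dose series; inconclusive = inhibition above 80% but not taken into the dose series; inactive = below 80% or under 30% at every dose of the series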;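 note: bacteria incubated seven days before Alamar blue readout; 0% = bacteria only wells and 100% = bacteria with antibiotic wells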
# Arbovirus anti = antivirals against arbovirus infection, primary screen, cell-based, full library, 10K replicate subset. arbovirus infection cell-based antiviral screen. inhibition, % at 10 µM. 200,000 tested, 0.37% active;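 active = inhibition from about 30%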;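 note: bluetongue infection of BSR cells; cell survival read as ATP light after 72 h; 0% = infected wells without compound and 100% = uninfected wells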
# Arbovirus anti repeat = second read-out of Arbovirus anti, no call of its own (marks repeat the call); inhibition, %; measured here: 10K subset replicate screen; many hits read low in the repeat;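 first of two repeat runs on a subset; 0% = infected and 100% = uninfected wells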
# The depositor's hits bear a star; ? = inconclusive; · = not tested or not shown. An excerpt. The share of hits here may be higher or lower than overall.
SMILES,Mtb bLac sens,YopH PTP inh,RecA intein inh,Mtb growth,Arbovirus anti,others
Cc1cc(C)nc(SCC(=O)Nc2ncc(Cc3cccc(Cl)c3)s2)n1,?,-19,-2.6,13%,0,
O=C(c1cc(-c2ccncc2)nc2ccccc12)N1CCN(c2ccccc2O)CC1,16,·,-2.4,·,·,
O=C1Nc2ccccc2C(O)(C(=O)NCc2ccco2)N1c1ccc(Cl)cc1 (configuration not stated),2,-40,1.0,-4%,13,Arbovirus anti repeat=8
Cc1cc(/C=N\NC(=O)c2cccs2)c(C)n1-c1ccc2ncccc2c1,99,-20,6.5,-1%,-14,
COc1ccc(NCC(=O)Nc2ccc(Br)cc2F)c(OC)c1,87,·,3.1,75%,·,
O=[N+]([O-])c1ccc(Oc2ccc(OCc3ccccc3)cc2)nc1,1,·,-1.8,·,·,
COc1cc(C(=O)NCC2(c3ccccc3)CCCC2)cc(OC)c1OC,-6,·,2.1,·,·,
Cn1ncc(Br)c1C(=O)NC1CCCCCC1,4,·,-1.2,·,·,
Cc1cccc(C)c1NC(=O)CN(c1ccccn1)S(=O)(=O)c1ccccc1,-4,·,0.7,·,2,
CC1=C(C#N)C(NC(=O)C2CC2)(C(F)(F)F)C(=O)N1 (configuration not stated),-1,-32,-3.9,-2%,2,
COC(=O)[C@@]1(Cc2ccccc2)[C@H]2c3cc(C(=O)N4CCCC4)n(CCSCCO)c3C[C@H]2CN1C(=O)c1ccccc1,5,-5,4.6,·,2,
Cc1n[nH]c(C)c1CCN(C)Cc1cn(C)nc1-c1ccc2c(c1)OCCO2,3,·,-3.3,-4%,-1,
CC(C)(C)S(=O)(=O)c1c(C(=O)O)cccc1C(=O)O,1,-17,1.5,-9%,15,
COc1ccccc1C1CCN(c2cc(O)ccc2[N+](=O)[O-])CC1,-9,·,13,16%,·,
CCO[C@@H]1OC(C(=O)Nc2ccccc2)=C[C@H](c2ccc3c(c2)OCO3)[C@H]1CCCO,5,·,0.0,12%,-2,
CCOC(=O)NNS(=O)(=O)c1cc(Br)ccc1Br,-4,·,-0.5,5%,15,
CC(C)c1[nH]nc2c1C(Cc1ccccc1)C(C#N)=C(N)O2 (configuration not stated),5,-47,53*,-1%,-3,
NNC(=O)C(=O)Nc1ccc(Cl)c(Cl)c1,-7,·,-1.3,?,·,
COc1ccccc1N1CCN(C(=O)/C=C/c2cccc([N+](=O)[O-])c2)CC1,39,·,-5.8,17%,·,
Cc1cc(C)n(-c2nnc(NC(C)(C)C)nn2)n1,-7,-22,-1.8,-9%,-6,
Cc1[nH]c(C)c(S(=O)(=O)N2CCN(c3ccccc3)CC2)c1C(=O)N1CCCCC1,?,·,-0.8,·,·,
Cc1ccc(CC(=O)Nc2cc(C)on2)cc1,2,·,-2.4,·,·,
COc1cccc(OCCCN2CCCCC2)c1,-9,-17,1.3,2%,4,
CCn1c(SCC(=O)NNC(=O)Cc2ccccc2)nnc1-c1ccccc1,-17,-10,2.2,-12%,-6,

# Structural class: the entries above with fluorine
SMILES,Mtb bLac sens,YopH PTP inh,RecA intein inh,Mtb growth,Arbovirus anti,others
COc1ccc(NCC(=O)Nc2ccc(Br)cc2F)c(OC)c1,87,·,3.1,75%,·,
CC1=C(C#N)C(NC(=O)C2CC2)(C(F)(F)F)C(=O)N1 (configuration not stated),-1,-32,-3.9,-2%,2,

# Following part:
SMILES,Mtb bLac sens,YopH PTP inh,RecA intein inh,Mtb growth,Arbovirus anti,others
COc1ccc(C(CNC(=O)C(=O)Nc2ccc3c(c2)OCCO3)N2CCN(C)CC2)cc1 (configuration not stated),-9,·,0.6,·,·,
CCCN1C(=O)S/C(=C/c2ccc(N3CCOCC3)o2)C1=O,·,·,-20,5%,·,
CC(c1ccccc1)n1c(-c2ccncc2)n[nH]c1=S (configuration not stated),-9,-31,1.3,-9%,3,
CCNc1nc(NCC)n2c(SCC(=O)c3ccccc3F)nnc2n1,-7,·,5.0,3%,7,
C=CCN1C(=O)c2ccc(C(=O)NCCc3ccc(F)cc3)cc2C1=O,-17,·,6.0,·,·,
CC(=O)c1cccc(CN2CCN(CC=C(C)C)C(CCO)C2)c1 (configuration not stated),-2,·,-2.4,-4%,·,
Cn1ccnc1SCC(=O)c1cccc(C(F)(F)F)c1,2,·,2.7,·,·,
CNCc1ccccc1Sc1ccc(O)c(O)c1,-1,-17,88*,-5%,-15,
N=c1c2c(ncn1CCCO)Oc1c(ccc3ccccc13)C2c1ccccc1 (configuration not stated),-6,·,9.6,16%,·,
Cc1ccc(-n2nnnc2SCc2ccc(C(=O)O)cc2)cc1C,0,·,4.8,·,·,
Cc1[nH]c(=O)[nH]c(=O)c1/C=N/NC(=O)[C@H](C)NC(=O)OC(C)(C)C,-7,-29,-1.4,-6%,9,
CC1(c2nnc(Cc3ccccc3)o2)CC(c2c(Cl)cccc2Cl)=NO1 (configuration not stated),-2,·,4.6,-12%,·,
O=S(=O)(NN=C1CCCCCCC1)c1ccc(Br)cc1,-8,-15,1.4,-3%,0,
Cc1ccc(-n2c(C)nn(Cc3ccc([N+](=O)[O-])cc3)c2=O)cc1,7,·,-3.2,2%,0,
O=C(c1ccc2c(c1)N(Cc1ccccc1)C(=O)CS2)N1CCOCC1,-5,-41,0.0,-3%,4,
CCc1nc(SCC(=O)NCC2CCCO2)c2oc3ccccc3c2n1 (configuration not stated),-8,-34,0.1,11%,1,
CC1CCN(C(=O)c2cc(-c3ccc(Cl)c(Cl)c3)on2)CC1,-4,-11,0.8,-4%,-3,
CCOC(=O)c1c(C)[nH]c(C(=O)C(C)OC(=O)c2cccc(OCc3c(C)noc3C)c2)c1C (configuration not stated),-2,-51,1.3,11%,-13,
CCCNS(=O)(=O)c1ccc(OCC(=O)N2CCN(C)CC2)cc1,4,-11,1.1,-3%,3,
C=C1CCN([C@H](C(=O)Nc2ccc(OC)cc2)C(C)C)S(=O)(=O)c2ccccc21,-5,·,1.6,2%,·,
CNC(=O)c1c(NC(=O)c2ccc(N3C(=O)CCC3=O)cc2)sc2c1CCCC2,-10,·,-3.3,-5%,6,
COc1ccccc1NC(=O)CNC(=O)c1ccccc1C,-3,-21,-1.4,-4%,-3,
CS(=O)(=O)N(CC(=O)N/N=C/c1ccccn1)c1ccc(Oc2ccccc2)cc1,-6,·,-0.8,-1%,-8,
COc1cccc(CNC(=S)NC2CCCC2)c1,-13,-14,-2.3,3%,4,
CCOP(=O)(OCC)C(Nc1cccc([N+](=O)[O-])c1)c1ccc(OC)cc1 (configuration not stated),-6,·,-1.8,3%,·,
Cc1cc(C)n(-c2ccc(NC(=O)C3CCCCN3C(=O)c3cccs3)cc2)n1 (configuration not stated),-7,·,3.5,·,·,
CC(=O)c1cccc(N(CC(=O)NC2CCCC2)C(=O)c2ccc(C)s2)c1,6,·,0.4,·,·,
CN(c1cccc(NC(=O)c2ccccc2N(Cc2ccccc2)S(C)(=O)=O)c1)S(C)(=O)=O,-5,·,2.2,·,·,
Cc1cc2cc(C)c3nnc(SCC(=O)Nc4ccc(S(=O)(=O)N5CCCCC5)cc4)n3c2cc1C,47,-25,-1.4,0%,-22,
Cc1cc(C)cc(OCCCOc2cccc3cccnc23)c1,90,-55,21,1%,-31,
CCCn1c(C)cc(C(=O)CN2C(=O)c3cccc(N)c3C2=O)c1C,0,-3,·,4%,0,
Cc1cc(C)n2nc(SCc3ccc(F)cc3Cl)nc2n1,2,·,-1.9,·,·,
CCc1cccc(NC(=O)CCCn2nc(CC)n3c(cc4occc43)c2=O)c1,1,·,-4.9,·,·,
COc1ccc(/C=C/C(=O)O)cc1S(=O)(=O)NCC1CCCO1 (configuration not stated),0,·,0.8,-17%,·,
Cc1ccc2c(c1)CCCN2C(=O)CSc1ccccc1,-5,·,6.3,·,·,
COc1ccc(CNC(=O)CSc2n[nH]c(N)n2)cc1OC,-5,·,0.7,·,·,

# Random excerpt: 4 compounds from above, in no set order.
SMILES,Mtb bLac sens,YopH PTP inh,RecA intein inh,Mtb growth,Arbovirus anti,others
CCOP(=O)(OCC)C(Nc1cccc([N+](=O)[O-])c1)c1ccc(OC)cc1 (configuration not stated),-6,·,-1.8,3%,·,
CN(c1cccc(NC(=O)c2ccccc2N(Cc2ccccc2)S(C)(=O)=O)c1)S(C)(=O)=O,-5,·,2.2,·,·,
Cc1cc(C)n2nc(SCc3ccc(F)cc3Cl)nc2n1,2,·,-1.9,·,·,
CC(=O)c1cccc(N(CC(=O)NC2CCCC2)C(=O)c2ccc(C)s2)c1,6,·,0.4,·,·,

# (listing goes on)
SMILES,Mtb bLac sens,YopH PTP inh,RecA intein inh,Mtb growth,Arbovirus anti,others
Cc1ccc(NC(=O)COc2ccc(/C=N\NC(=O)c3cccnc3)cc2)cc1C,58,·,-1.2,·,·,
COc1cccc(Nc2ccc(Nc3cccc(OC)c3)nn2)c1,?,-16,-2.7,76%,-2,
CC1CCCCN1CC(O)COc1ccc(OCC(O)CN2CCCCC2C)cc1 (configuration not stated),-5,·,-0.7,·,·,
Cc1cc(NC(=O)c2ccc3c(c2)C(=O)N(Cc2cccnc2)C3=O)no1,3,4,2.1,-5%,5,
CC(C)n1c(SCC(=O)Nc2ccc(F)cc2)nnc1C1CC1,-4,·,1.8,·,·,
COc1cccc2c1Oc1ncccc1N(C(=O)CCC(=O)NCc1ccc(C)cc1)C2,3,·,0.5,·,·,
O=C(CN1CCN(S(=O)(=O)c2ccc(F)cc2)CC1)c1ccc(O)c(O)c1,1,·,-6.3,-1%,-2,
Cc1cc(C)cc(OCC(=O)O/N=C(\N)c2ccccn2)c1,-4,-9,-1.9,3%,2,
CCn1c(SCC(=O)N(Cc2ccccc2)C2CCS(=O)(=O)C2)nc2ccccc2c1=O (configuration not stated),-9,-24,11,-2%,-2,
COc1ccc(N(CC(O)Cn2c3ccccc3c3ccccc32)S(=O)(=O)c2ccccc2)cc1 (configuration not stated),-3,-9,0.9,-2%,-18,
Cc1ccc(NC(=O)c2ccc(NCCc3ccccc3)c([N+](=O)[O-])c2)cc1F,-4,-7,21,9%,-12,
COc1ccc(-c2csc(NC(=O)CN3C(=O)CCC3=O)n2)c(OC)c1,-2,-17,5.4,-1%,-10,
Cc1cccc(OCC(=O)NCc2nc(-c3ccccc3)no2)c1,13,·,-0.5,·,·,
COC(=O)[C@H](Cc1ccccc1)NC(=O)NCc1ccc(C)cc1,53,·,0.9,2%,·,
CC(=O)c1c(C)nc2cc(Cl)ccc2c1N,-12,32,6.8,·,3,
O=C(NCCCN1CCCCC1)C1CCN(S(=O)(=O)N2CCC3(CC2)OCCO3)CC1,5,·,-0.7,·,·,
O=S(=O)(NCC1CCCO1)c1cc(Cl)ccc1Br (configuration not stated),-1,9,1.3,-7%,3,
CC(=O)c1ccc(N(CC(=O)NC2CCCCC2)C(=O)c2csnn2)cc1,5,·,0.2,·,·,
CCOC(=O)CCNC(=O)N1CCCC(C(=O)c2ccccc2SC)C1 (configuration not stated),-10,·,0.8,-1%,8,
CS(=O)(=O)N1CCc2cc(S(=O)(=O)NCCNS(=O)(=O)c3ccc4c(c3)CCN4S(C)(=O)=O)ccc21,2,·,-0.5,-2%,-11,
O=C(CCC1CCCN(C(=O)Cc2cccc(F)c2)C1)N1CCN(c2ccccn2)CC1 (configuration not stated),3,·,-1.2,-5%,-1,
COc1ccc(OC)c(S(=O)(=O)N2CCN(C(=O)c3ccco3)CC2)c1,-6,·,-2.7,·,·,
Cn1c(SCC(=O)c2ccc3c(c2)NC(=O)CO3)nc2ccccc21,6,·,-0.4,10%,21,
CCCCNS(=O)(=O)c1ccc2nc(-c3cccnc3)cc(C(=O)NCCCOCC)c2c1,-1,·,-0.3,1%,-8,
Cc1cc(-c2ccccc2)nc(N/N=C/c2ccc([N+](=O)[O-])cc2)n1,2,5,0.0,9%,2,
COc1cccc(NC(=O)Nc2ccncc2)c1,-4,·,·,3%,6,
CC(C)c1ccc(S(=O)(=O)N2CCCCC2)cc1,-1,·,1.2,9%,0,
CCC(=O)Nc1cccc(Br)c1,-15,0,2.1,10%,-5,Arbovirus anti repeat=-3
Oc1ccc(NC(=S)N=Nc2c(O)[nH]c3ccccc23)cc1,12,·,10,8%,-14,
CC(=O)Nc1ccc(S(=O)(=O)N2CCC(c3nnc(-c4ccc(C)cc4)o3)CC2)cc1,-8,·,2.6,·,·,
CC(CCc1ccccc1)NC(=O)COc1ccc(S(=O)(=O)N2CCOCC2)cc1[N+](=O)[O-] (configuration not stated),?,-24,2.2,2%,15,
COc1ccc(CNC(=O)c2coc(=O)c3ccccc23)cc1,6,·,16,-1%,4,

# Source: PubChem BioAssay
